Screening data: PubChem, National Center for Advancing Translational Sciences (NCATS)
RE007 growth inh: less growth of the S. pombe RE007 Vpr strain | S. pombe RE007 Vpr strain, BacTiter-Glo ATP luminescence, 24 h; control for the full effect not named in the record | Potency, µM (top dose mostly 92.2 µM), inactives show at the top dose activity change, negative = less growth | 360,000 compounds, 0.21% hits | AID 651644; active = well fitted falling curve with a large enough effect; inconclusive = small, poorly fitted or top-dose-only effect; inactive = no such curve, though single readings can be large or run the other way;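 also: % is scaled to controls: 0 for no effect and ±100 for the full control effect; nearly all actives have a fitted effect of over 50% in size; the assay follows cell death caused by Vpr and the record does not say whether a fall means rescue or toxicity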
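Fission yeast strain RE007, carrying one chromosomally integrated HIV-1 vpr copy, was seeded at OD 0.01 in PMG+AL medium with 23 nL pinned compound. After 24 h at 30 °C and 99% humidity, viability was read by BacTiter-Glo luminescence.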
Cruzain inh Det: blocks cruzain activity in presence of Triton detergent | P25779 | purified cruzain, Z-FR-AMC fluorescence, 0.01% Triton | Potency, µM, for inactives: max response, negative = inhibition, usual class: inhibitors | 200,000 compounds, 0.43% hits | AID 1478; active = well fitted curve in the direction sought with a large enough effect; inconclusive = small, poorly fitted or top-dose-only effect, or another doubt; inactive = no such curve, though single readings can be large; an effect the other way counts as inactive or inconclusive;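 also: plate controls were neutral wells for no effect and buffer without enzyme for full effect; nearly all actives have a fitted effect of over 40% in size; top concentration of the series not given in the record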
Target sequence (P25779 123-467 limits assumed): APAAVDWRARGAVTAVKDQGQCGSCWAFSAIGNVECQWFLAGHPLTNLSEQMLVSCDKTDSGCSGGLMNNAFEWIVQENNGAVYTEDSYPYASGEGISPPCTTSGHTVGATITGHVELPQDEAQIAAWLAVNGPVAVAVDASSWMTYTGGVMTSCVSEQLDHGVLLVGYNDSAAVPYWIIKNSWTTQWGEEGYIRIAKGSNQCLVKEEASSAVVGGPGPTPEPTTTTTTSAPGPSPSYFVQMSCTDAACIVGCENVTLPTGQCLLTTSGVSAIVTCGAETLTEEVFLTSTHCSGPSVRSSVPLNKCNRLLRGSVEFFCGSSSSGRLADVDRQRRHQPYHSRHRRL
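Steps: dispense cruzain (1.5 nM final) in acetate buffer pH 5.5 with DTT and 0.01% Triton X-100; pin-transfer compounds; incubate 15 min RT; add Z-FR-AMC (2 uM final); read fluorescence every 30 s, using the 60 s intensity change.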
Cruzain inh noDet: inhibitors of Trypanosoma cruzi cruzain without detergent. 200,000 compounds, 2.3% hits. Potency, µM, inactives show max response, negative = inhibition, usual class: inhibitors. purified cruzain, Z-FR-AMC fluorescence, no detergent. AID 1476; active = well fitted curve in the direction sought with a large enough effect; inconclusive = small, poorly fitted or top-dose-only effect, or another doubt; inactive = no such curve, though single readings can be large; an effect the other way counts as inactive or inconclusive;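 also: plate controls were enzyme without inhibitor for no effect and buffer without enzyme for full effect; nearly all actives have a fitted effect of over 40% in size; top concentration of the series not given in the record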
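Purified cruzain at 1.5 nM, pre-incubated 15 min with compound at room temperature in 100 mM sodium acetate pH 5.5, 5 mM DTT, 0.00005% Triton X-100. Reaction started with 2 uM Z-FR-AMC; AMC fluorescence increase over 60 s gives rate.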
Marburg entry inh: inhibitors of Marburg virus binding or cell entry; Marburg virus pseudotyped entry inhibition, cell reporter; control for the full effect not named in the record; about a third of the inactives were read at about 46 µM; Potency, µM (titrated, usually from 37.8 µM), inactives show top-dose activity change, negative = inhibition, hits mostly inhibitors; 300,000 compounds, 1.8% hits; active = well fitted inhibition curve with a large enough effect; inconclusive = small, poorly fitted or top-dose-only effect, or effect the other way; inactive = flat fitted curve, though single readings scatter; tested in HEK293 cells; about a fifth of its hits are not listed in these tables; also: % is scaled to controls: 0 for no effect and ±100 for the full control effect; luciferase read-out
SARS PLP yeast: inhibitors of SARS-CoV papain-like protease in yeast | S. cerevisiae expressing SARS-CoV PLpro, growth rescue; control for the full effect not named in the record | Potency, µM (highest dose often 32.9 µM), without a hit: top-dose activity, positive = growth rescue | AID 485353 | 330,000 compounds, 0.19% hits; also: 0% is about no effect; nearly all actives have a fitted effect of over 55% in size; growth read by luminescence after 48 h
StopGo reporter: lowers the luciferase signal of an FMDV 2A StopGo reporter; Potency, µM (highest dose often 57.9 µM), for the others: top-dose signal change, negative = less light; 410,000 compounds, 1.2% hits; human cells with a luciferase reporter of 2A StopGo recoding; control for the full effect not named in the record; active = well fitted falling curve with a large enough effect; inconclusive = small, poorly fitted or top-dose-only effect; inactive = no such curve, though single readings can be large or run the other way; tested in HEK293T cells; also: % is scaled to controls: 0 for no effect and ±100 for the full control effect; nearly all actives have a fitted effect of over 45% in size; luciferase light after 4 h
NS1 function inh: inhibitors of influenza NS1 protein function. S. cerevisiae slowed by influenza A NS1, growth recovery by OD600. Potency, µM (titrated, usually from 46.1 µM), for the others: top-dose activity, positive = more growth. 270,000 compounds, 0.4% hits; also: actives are rising curves; nearly all actives have a fitted effect of over 50% in size
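A cell-based growth assay was used: compounds that relieve NS1-induced slow growth of budding yeast raise OD600. Assay medium was yeast nitrogen base with ammonium sulphate and -URA supplement, pH 6.0, with 2% galactose.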
LASV entry inh: blocks Lassa virus binding to or entry into cells. Lassa virus pseudotype entry inhibition, cell reporter; control for the full effect not named in the record. Potency, µM (series often up to 37.9 µM), without a hit: top-dose activity change, negative = inhibition, most hits filed as inhibitors. 300,000 compounds, 1.2% hits. AID 540256; active means well fitted inhibition curve with a large enough effect; inconclusive means small, poorly fitted or top-dose-only effect, or effect the other way; inactive means flat fitted curve, though single readings scatter; tested in HEK293 cells; also: % is scaled to controls: 0 for no effect and ±100 for the full control effect; nearly all actives have a fitted effect of over 50% in size; luciferase read-out
Numbers without * were called inactive; ? = inconclusive; / = not tested or not shown; & = joins results of further samples; [ ] = remark or other dose. Unless noted, calls follow the shape of the dose curve; as a rule, active means well fitted rising curve with a large enough effect; inconclusive means small, poorly fitted or top-dose-only effect; inactive means no such curve, though single readings can be large or run the other way. Potency is read from the fitted curve at half-maximal effect. Outcome played no part in choosing rows (roughly 4.5% active in at least one column).

SMILES	RE007 growth inh	Cruzain inh Det	Cruzain inh noDet	Marburg entry inh	SARS PLP yeast	StopGo reporter	NS1 function inh	LASV entry inh
COc1ccc(C(=O)Nc2ccccc2C(=O)N2CCCCC2C)cc1 (configuration not stated)	-15%	/	/	/	0%	-14%	8%	/
COc1ccc(C2C(C(C)=O)=C(O)C(=O)N2c2nccs2)cc1OC (configuration not stated)	0%	-7.7%	-1%	?	-8%	-4%	-1%	25%
CCC(=O)NC(=S)Nc1ccc(NC(=O)c2cccnc2)cc1	-11%	/	/	4%	1%	-5%	2%	23%
COC(=O)[C@H](Cc1ccccc1)NC(=O)N1CCN(Cc2ccccc2)CC1	-2%	4.8%	0%	?	-5%	-5%	1%	-10%[14.3 µM]
COc1cccc(-n2c(SCc3cc(=O)oc4cc(O)c(O)cc34)nc3ccccc3c2=O)c1	40%	-15%	25µM*	-31%	14µM*	-17%	?	?
CC(C)Nc1nc(NC(C)C)nc(C(=O)OCCO)n1	4%	-1.0%	-5%	/	-5%	-15%	1%	/
Cc1nnc(NC(=O)CSc2nnc(C)c(=O)n2N)s1	13%	/	/	/	3%	0%	5%	/
CC(C)CCN1CCN(CC(c2ccccc2)c2ccccc2)CC1CCO (configuration not stated)	-7%	/	/	?	-1%	-24%	4%	?
O=c1ccc2cc(S(=O)(=O)NCc3ccc(Br)cc3)ccc2[nH]1	/	-1.6%	?	/	/	-6%	/	12%[46.1 µM]
CC1CCC/C(=N\NC(=O)COc2ccccc2Cl)C1 (configuration not stated)	3%	-0.9%	-1%	17%	?	-14%	1%	2%
Nc1c(C(=O)Nc2ccc3c(c2)OCCO3)nnn1Cc1ccc(Br)cc1	-5%	/	/	?	6%	27%	/	7%
Cc1ccc(NC(=O)Nc2ccc([N+](=O)[O-])cc2)nc1	-3%	/	/	-15%[46.1 µM]	-2%	34%[activator]	/	?
CC(=O)N(NC(=O)c1ccc(C)cc1)C1CC(=O)N(c2ccccc2Cl)C1=O (configuration not stated)	-10%	1.2%	10%	8%	6%	-19%	2%	6%
CCOC(=O)N1CCN(C(=O)CN(c2ccc(OCC)cc2)S(C)(=O)=O)CC1	-3%	-2.2%	4%	9%	4%	-19%	5%	-2%
CC(=O)Nc1ccc(NC(=O)C2CCCN2C(=O)Nc2ccc(F)cc2)cc1 (configuration not stated)	2%	/	/	9%[46.1 µM]	0%	8%	9%	11%[46.1 µM]
CCOc1ccccc1NC(=O)CSc1nc2ccccc2nc1Cc1ccc(C)cc1	/	0.3%	1%	/	/	-3%	/	5%[46.1 µM]
CC1Cc2ccccc2N1C(=O)CSc1nnc(N)s1 (configuration not stated)	7%	/	/	/	-3%	-18%	19%	/
COc1ccc(-n2c(O)c(C=NCCCn3ccnc3)c(=O)[nH]c2=O)cc1	-1%	1.3%	-2%	?	?	-25%	-4%	12%
O=C(COc1ccccc1Cl)Nc1ccc(Cl)cn1	-3%	-3.4%	-13%	15%	2%	8%	-16%	?
COc1ccc(NC(=O)n2ncc3cc(Cl)ccc32)cc1OC	-16%	/	/	/	-7%	40%[activator]	-3%	/
O=C(NC1CCCCC1)C1CCN(C(=O)c2ccc(-c3ccccc3)cc2)CC1	6%	/	/	-2%[46.1 µM]	-1%	-21%	-3%	-10%
Cc1nn(C(C)C(=O)NCCCN(Cc2ccccc2)C(C)C)c(=O)c2c1sc1ccccc12 (configuration not stated)	-9%	/	/	/	-6%	-21%	-1%	/
COc1cccc(NC(=O)Nc2ccccc2Br)c1	2%	/	/	-7%[46.1 µM]	-2%	37%	-2%	?
NC(=O)C1(N2CCCCC2)CCN(C(=O)CSc2nc3ccccc3o2)CC1	-4%	/	/	?	/	0%	-1%	-2%
Cc1cc(C(=O)NNC(=O)c2cccs2)nn1C(C)(C)C	5%	/	/	/	2%	-5%	-3%	/
(cont.)
SMILES	RE007 growth inh	Cruzain inh Det	Cruzain inh noDet	Marburg entry inh	SARS PLP yeast	StopGo reporter	NS1 function inh	LASV entry inh
Cc1nnc(Cn2cnc3c2c(=O)n(C)c(=O)n3C)o1	3%	/	/	-19%[46.1 µM]	6%	18%	6%	/
COc1cc(-c2nc(SCC(=O)Nc3ccc4c(c3)OCO4)c(-c3ccccc3)[nH]2)cc(OC)c1OC	/	-5.3%	?	?	/	3%	/	?
COC(=O)[C@H](CC(C)C)NC(=O)N1CCCCC1C (some centres not stated)	8%	/	/	/	-1%	-19%	8%	/
CCOC(=O)c1ccccc1NC(=O)CSc1nc2ncccc2o1	/	-2.3%	2%	/	/	-6%	/	10%[46.1 µM]
C=CCOc1c(CNn2cn[nH]c2=S)cccc1OC	-1%	/	/	-17%[46.1 µM]	0%	0%	1%	9%
Cc1ccccc1OCC(O)Cn1c(=N)n(CCN2CCOCC2)c2ccccc21 (configuration not stated)	4%&-6%	-1.6%	11%	?	4%&0%	?	-5%&10%	-28%
Fc1cc(Br)ccc1NC(=S)Nc1ccccc1	/	-0.7%	9%	?	-13%	21%	-11%	18%
CCn1c(=O)n(CC(=O)NCC2CCCO2)c(=O)c2c3c(sc21)CCCC3 (configuration not stated)	2%	/	/	/	?	-15%	-1%	/
Cc1ccc2[nH]cc(CCNC(=O)/C=C/c3ccco3)c2c1	-9%	/	/	0%	-2%	-20%	-13%	/
Cc1c(C(=O)OCC(=O)N(C)c2ccccc2)oc2ccccc12	-10%	/	/	-9%	-3%	25%	-37%	-2%
O=C(Cn1ccc([N+](=O)[O-])n1)NCC1CCCO1 (configuration not stated)	4%	/	/	/	-2%	-16%	6%	/
CCOc1ccc(OCCCC(=O)N(C)CC(=O)Nc2ccc(N3CCOCC3)cc2)cc1	1%	/	/	3%	-2%	-6%	/	6%
Cc1cc(C(=O)CCC(=O)NCC2COc3ccccc3O2)c(C)s1 (configuration not stated)	-21%	/	/	4%	-6%	-12%	/	-18%
NS(=O)(=O)c1cccc(NC(=O)CN2CCN(Cc3ccc4c(c3)OCO4)CC2)c1	8%	-1.2%	-2%	?	6%	-17%	6%	-2%
CCOc1ccc(-n2nc3cc(C)c(N)cc3n2)cc1	-9%	/	/	/	-5%	-25%	-7%	/
COc1cc(/C=C/C(=O)O)cc(S(=O)(=O)N2CCCc3ccccc32)c1OC	-6%	/	/	/	-1%	-5%	5%	/
COc1ccccc1C(=O)Nc1ccccc1SC	-14%	-3.0%	-17%	-1%	-8%	16%	/	16%
CCOc1ccc(/C=C2\SC(=S)N(CCC(=O)Nc3ccccc3C(=O)O)C2=O)cc1	-14%	/	/	15%[46.1 µM]	0%	19%	-1%	-16%[46.1 µM]
NC(=O)[C@@H]1CC2(CC(c3cccc(NC(=O)CC(c4ccccc4)c4ccccc4)c3)=NO2)CN1C(=O)COc1ccc(Cl)cc1 (some centres not stated)	-4%	/	/	/	1%	?	?	/
COc1cccc2cc(CC(=O)c3ccc(C)cc3C)c(=O)oc12	15%	/	/	/	-2%	27%	-3%	/
CC(C)NC(=O)C1CC(=O)N(C(C)c2ccccc2)C1 (configuration not stated)	1%	-3.1%	-12%	-19%	4%	21%	-6%	?
COC(=O)C1C(=O)C2=C(CC1C)NC(C)=C(C(=O)OC1CCCCC1)C2c1ccc(N(C)C)cc1 (configuration not stated)	1%	-9.6%	?	?	-3%	30%	-12%	?
O=C(CCNC(=O)c1ccccc1Cl)Nc1nc(-c2ccc3ccccc3c2)cs1	-12%	2.2%	?	?	-9%	?	?	0%
CCOC(=O)C1=C(C)N=c2s/c(=C/c3cccc([N+](=O)[O-])c3O)c(=O)n2C1c1ccccc1 (configuration not stated)	2%	/	/	?	1%	?	1%	-23%
COC(=O)c1sc2ccccc2c1NC(=O)c1ccc(S(=O)(=O)N2CCC(C)CC2)cc1	19%	-1.9%	?	-16%	3%	-20%	25%	-2%
(further entries)
SMILES	RE007 growth inh	Cruzain inh Det	Cruzain inh noDet	Marburg entry inh	SARS PLP yeast	StopGo reporter	NS1 function inh	LASV entry inh
CCOC(=O)N1CCC(Nc2nc3ccccc3n3nnnc23)CC1	28%	-3.0%	4%	-6%	-5%	5%	-5%	-15%
CCCCOc1ccc(C(=O)NCCc2sc(-c3cccc(F)c3)nc2C)cc1	/	-4.5%	25%	/	/	?	/	-8%[46.1 µM]
CCOc1ccc(CCNC(=O)c2ccc(F)c(S(=O)(=O)N3CCOCC3)c2)cc1OCC	9%	/	/	-12%	-9%	?	2%	-21%
CC(Oc1ccccc1)c1ccnn1S(=O)(=O)c1ccccc1 (configuration not stated)	6%	-2.6%	1%	3%[46.1 µM]	-2%	2%	-12%	?
CC1CCN(c2ncnc3nc[nH]c23)CC1	2%	-3.5%	-12%	/	1%	-25%	-11%	/
CC(C)(C)c1ccc(OC(=O)N2CCCCC2)cc1	24%	/	/	?	0%	25%	-11%	18%
Oc1ccccc1-c1nc(NC2CCCC2)c2ccccc2n1	-2%	/	/	/	-2%	-29%	-3%	/
CCn1cc(C(=O)N[C@@H](CCSC)C(=O)NCCCN2CCOCC2)c(=O)c2cc3c(cc21)OCO3	-5%	/	/	/	1%	2%	-7%	/
CCN1CCN(c2oc(/C=C/c3ccccc3OC)nc2C#N)CC1	/	-25%	32µM*	-1%[46.1 µM]	/	9%	/	-19%[46.1 µM]
COc1ccccc1NS(=O)(=O)c1cc(NC(=O)C(C)(C)C)ccc1N1CCOCC1	-20%	/	/	-28%	1%	33%[activator]	/	-22%[46.1 µM]
Cc1nc(C(C)NC(=O)CCc2nnc(-c3ccsc3)o2)cs1 (configuration not stated)	6%	/	/	/	0%	18%	5%	/
O=C(NC1CCCC1)c1cccc(Cn2cc([N+](=O)[O-])cn2)c1	26%	-3.6%	-5%	1%	22%	-14%	15%	7%

Quoted from the listing:
In Cruzain inh noDet, CCCCOc1ccc(C(=O)NCCc2sc(-c3cccc(F)c3)nc2C)cc1 is entered as 25%
In RE007 growth inh, CC(C)(C)c1ccc(OC(=O)N2CCCCC2)cc1 is entered as 24%
